PABP polyA inh: PABP-poly(A) binding inhibition; inhibition, % at 35 µM; hit rate 1% among 290,000; PABP-poly(A) RNA binding, fluorescence polarization;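 active means 50% or more with normal probe brightness, or confirmed in later tests; about a fifth of its hits are not listed in these tables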;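 further: calls also rest on retests at 20 µM and on dose response follow-up; controls were probe without protein and protein plus probe with vehicle; some compounds called inactive have numbers as strong as hits; many hits fall short of the cut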
eIF4H FP inh: inhibitors of RNA binding by human eIF4H. eIF4H fluorescence polarization binding assay. inhibition, % at 35 µM. hit rate 0.94% among 290,000. AID 2012;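 active means 50% or more with normal probe brightness, or confirmed in later tests; about a fifth of its hits are not listed in these tables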;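 further: calls also rest on retests at 20 µM and on dose response follow-up; 0% = protein and probe with vehicle and 100% = probe without protein; strong numbers were not always called active; many hits fall short of the cut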
MT1-MMP act inh: inhibitors of human MT1-MMP activation; HT1080 RFP-PRO-GFP cells, GFP/RFP ratio fluorescence, overnight; percent of plate control window, DMSO zero; GFP/RFP ratio change, % at 20 µM; hit rate 0.061% among 360,000; P50281; AID 651647;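 active means GFP/RFP ratio change of at least 30% with cell ATP level not reduced by more than half and red fluorescence within 50% of control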; further: strong numbers were not always called active
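Material – HT1080 RFP-PRO-GFP cells · Control set – DMSO wells and RFP-L50D-GFP cells · Incubation – overnight cell settling, then overnight compound exposure, 37 °C, 5% CO2 · Compound dosing – single-point 20 µM compound, 1% DMSO · Read-out – GFP/RFP fluorescence ratio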
Rce1 inhib: blocks yeast Ras-converting enzyme; Q03530; yeast membranes, quenched prenylated peptide cleavage fluorescence; calls only; hit rate 0.27% among 290,000; AID 2563;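 active means fall in fluorescence gain of 50% or more versus controls, with final raw signal at or below 3038400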;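 further: plate controls were neutral control wells for no effect and wells lacking membranes for full effect; tested at 10 µM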
Target sequence (Q03530 whole entry, looked up): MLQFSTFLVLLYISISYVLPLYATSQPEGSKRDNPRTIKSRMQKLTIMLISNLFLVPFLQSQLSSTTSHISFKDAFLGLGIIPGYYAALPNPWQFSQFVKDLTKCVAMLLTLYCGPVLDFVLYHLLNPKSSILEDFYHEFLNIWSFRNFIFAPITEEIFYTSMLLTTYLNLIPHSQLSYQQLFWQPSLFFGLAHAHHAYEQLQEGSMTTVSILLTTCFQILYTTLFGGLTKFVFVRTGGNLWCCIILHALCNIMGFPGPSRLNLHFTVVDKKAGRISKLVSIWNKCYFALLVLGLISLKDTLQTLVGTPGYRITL
Yeast UUG start: alters start codon recognition fidelity in yeast | S. cerevisiae UUG-firefly luciferase reporter, luminescence/redox ratio | activity score, % at 18.7 µM | hit rate 0.13% among 350,000 | AID 602363;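 active means replicate mean at a twofold rise or more, about +100% in these data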;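 further: firefly luciferase made from a UUG start codon reports start codon fidelity; reporter light over untreated wells divided by growth signal over untreated wells; some hits fall short of that in this replicate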
CSC inhib: blocks cancer stem cells. cancer stem cell-like cells viability, luminescence. inhibition, % at 7.5 µM. hit rate 1.1% among 300,000;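 active means mean at 75% or more and at least half the replicates too; tested in HMLE shEcad cells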;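 further: 0% = median of negative and 100% = median of positive control wells; the first replicate is given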
Env fusion inh: HIV envelope-mediated fusion inhibition | HeLa-JRFL Env/CEM21 cell fusion, luciferase | inhibition, % at 12.3 µM | AID 651610 | hit rate 1.1% among 360,000;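 active means mean replicate inhibition score of at least 50 and every replicate individually at or above 50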;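 further: 0% = plate neutral controls and 100% = maraviroc near 300 nM; one replicate is shown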
eIF4H FP inh retest: also measured in eIF4H FP inh; calls as there; inhibition, %; compound at 20 µM; confirmation average;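 mean of two retest wells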
PABP polyA inh retest: further read-out of PABP polyA inh, marked with its call; inhibition, %; compound at 20 µM; confirmation repeats;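 mean of two retest wells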
MT1-MMP act inh RFP: second read-out of MT1-MMP act inh, no call of its own (marks repeat the call); RFP signal change, %; measured here: RFP expression control read;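 0 = vehicle wells; hits needed this value within 50% of zero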
* marks the source's active call; other numbers are inactive results; i = inactive; / = not tested or not shown.

The first 4 compounds (preview)
SMILES | PABP polyA inh | eIF4H FP inh | MT1-MMP act inh | MT1-MMP act inh RFP | Rce1 inhib | Yeast UUG start | CSC inhib | Env fusion inh | others
CC(C)CCN1C(=O)c2ccc(C(=O)Nc3cccc(S(N)(=O)=O)c3)cc2C1=O | -8 | 6 | 5 | -8 | i | / | -9 | -90
CC1CCc2onc(C(=O)O)c2C1 (stereo not given) | 4 | 3 | 4 | 4 | i | / | -16 | -14
CCOc1ccc(-n2c([S-])c(C(=O)Nc3ccc(S(=O)(=O)N4CCOCC4)cc3)[n+]3cc(C(N)=O)ccc23)cc1 | 1 | 9 | -5 | -2 | i | / | -11 | 18
Cc1n[nH]c(=O)n1-c1ccc(C(C)C)cc1 | 2 | -3 | 1 | -1 | i | / | 0 | 6

Results, repeating the preview:
SMILES | PABP polyA inh | eIF4H FP inh | MT1-MMP act inh | MT1-MMP act inh RFP | Rce1 inhib | Yeast UUG start | CSC inhib | Env fusion inh | others
CC(C)CCN1C(=O)c2ccc(C(=O)Nc3cccc(S(N)(=O)=O)c3)cc2C1=O | -8 | 6 | 5 | -8 | i | / | -9 | -90
CC1CCc2onc(C(=O)O)c2C1 (stereo not given) | 4 | 3 | 4 | 4 | i | / | -16 | -14
CCOc1ccc(-n2c([S-])c(C(=O)Nc3ccc(S(=O)(=O)N4CCOCC4)cc3)[n+]3cc(C(N)=O)ccc23)cc1 | 1 | 9 | -5 | -2 | i | / | -11 | 18
Cc1n[nH]c(=O)n1-c1ccc(C(C)C)cc1 | 2 | -3 | 1 | -1 | i | / | 0 | 6
CC(=O)c1cnc2scnn2c1=O | 7 | -3 | -2 | -2 | i | / | -11 | -3
COc1ccc(-c2c3c(nc4sc(C(=O)Nc5ccccc5)c(N)c24)CCC3)cc1 | / | / | -5 | -6 | i | -34 | -1 | -46
CCOC(=O)C1CCCN(C(=O)c2cc(F)cc(F)c2)CC1 (stereo not given) | / | / | 0 | 4 | / | -25 | / | -39
COc1ccc(-c2[nH]ncc2[C@@H]2C[C@H]3CN(Cc4ccccc4C)C(=O)[C@]34CCCN24)cc1 | 0 | -3 | -11 | -5 | i | / | 10 | 6
O=C1Nc2ccccc2N=C(c2ccccc2)C1Br (stereo not given) | 7 | -6 | -5 | 1 | i | / | 5 | -3
Cc1cc(N2CCN(S(=O)(=O)c3ccc(Cl)cc3)CC2)c2ccccc2n1 | -10 | -5 | -5 | -17 | i | -9 | 40 | /
COc1cc(C(C)=O)ccc1OCC(=O)OCC(=O)c1cc(C)n(CC2CCCO2)c1C (stereo not given) | / | / | 3 | 7 | / | -11 | -12 | -2
CCc1nc(SCC(=O)NCc2ccccc2)c2c(=O)n(C)c(=O)n(C)c2n1 | 1 | -4 | 1 | 2 | i | 4 | -4 | -32
Cc1cc(-c2ccc(C)c(S(=O)(=O)N3CCN(C(=O)c4ccco4)CC3)c2)on1 | 0 | 1 | 1 | 0 | i | -7 | -2 | -6
NC(=O)Nc1ccc(C(=O)OCC(=O)Nc2cccc(S(=O)(=O)NC3=NCCCCC3)c2)cc1 | 15 | -2 | -7 | -1 | i | -8 | -3 | -58
Cc1ccc(Cl)cc1N1CCN(C(=O)CN2C(=O)c3cccc4cccc2c34)CC1 | 6 | -2 | -4 | -5 | i | -11 | 7 | -5
COc1ccc(C(=O)NNS(=O)(=O)c2ccc(OC)cc2)cc1 | 0 | -1 | -1 | 2 | i | 4 | -6 | 7
CC(C)(C)n1nnnc1C(c1cccs1)N(Cc1cccnc1)Cc1ccco1 (stereo not given) | -2 | -1 | -10 | -6 | i | -22 | -1 | 53*
CCOc1ccc(C2=CSC3=NCCN23)cc1 | -34 | -1 | -5 | -2 | i | -2 | -21 | -5
O=C(COC(=O)CCC(=O)c1cccs1)Nc1cccc(S(=O)(=O)N2CCOCC2)c1 | -4 | -5 | -2 | 0 | i | -6 | -15 | -347
CCOC(=O)C1=C(COC(=O)[C@H](C)NS(=O)(=O)c2ccc(NC(C)=O)cc2)NC(=O)NC1C (stereo not given in full) | / | / | -3 | 1 | / | -6 | -14 | /
O=C(CSc1nncs1)NC(=O)NCc1ccco1 | -3 | 22 | 3 | 6 | i | -15 | -15 | 0
COCCNC(=O)C(c1cccs1)N(C(=O)Cn1nnc2ccccc21)c1cccc(C(C)=O)c1 (stereo not given) | -14 | -13 | -3 | -2 | i | -2 | / | -88
Nc1ccc2c(c1)Cc1cc(Cl)c(Cl)cc1-2 | / | / | -5 | -11 | / | 0 | / | 60*
COc1ccccc1C(=O)NCCC(=O)N1CCN(S(=O)(=O)c2ccc(Cl)cc2)CC1 | / | / | 1 | 1 | / | -9 | -6 | /
COc1cc(CC(=O)Nc2ccc(S(=O)(=O)Nc3ncccn3)cc2)cc(OC)c1OC | 2 | 3 | 4 | 5 | i | -12 | -9 | -125
CN(CC(=O)Nc1ccccc1F)S(=O)(=O)c1ccc2c(c1)n(C)c(=O)c(=O)n2C | -12 | 11 | 0 | 1 | i | / | / | 12
Cc1ccc(/C=C/C(=O)Nc2cc(S(=O)(=O)N3CCCCCC3)ccc2OCC(F)(F)F)o1 | 0 | -2 | 3 | -5 | i | / | 4 | 17
O=C(NCc1ccccc1)c1ccc(Br)cc1Br | 1 | -8 | 1 | 0 | i | / | -11 | /
CC1=CC(C)(C)N2C(=O)C3(SCC(=O)N3c3ccc(F)cc3)c3cc(C)cc1c32 (stereo not given) | 7 | 10 | 12 | -14 | i | -8 | 8 | 72*
Clc1ccc(Cn2cc(/C=N/n3cnnc3)c3ccccc32)cc1 | -6 | -1 | -5 | -11 | i | -25 | -3 | /
CC(NC(=S)Nc1ccc(OC(F)F)cc1)c1ccc(F)cc1 (stereo not given) | -20 | 4 | 1 | -8 | i | / | 23 | -1
CNc1cncc(-c2cc(OC)ccc2OC)n1 | / | / | 5 | 3 | / | -16 | / | -3
Cc1cc(=O)n(CC(C)O)c(O)c1C#N (stereo not given) | 8 | 90 | -2 | 4 | i | / | 12 | / | eIF4H FP inh retest=-11;PABP polyA inh retest=5
COc1cc(C2CC(=O)Oc3c(C(CCN4CCN(c5ccccc5)CC4)c4ccc(N(C)C)cc4)c(OC)cc(OC)c32)cc(OC)c1OC (stereo not given) | -2 | -4 | 6 | 0 | i | -3 | 4 | -14
COc1ccc(C(=O)COC(=O)C(O)c2ccccc2)c(OC)c1 (stereo not given) | / | / | 1 | 0 | / | -19 | 4 | -30
O=C(COC(=O)c1ccc(Cl)nc1)c1ccc2c(c1)OCCO2 | -12 | 0 | 0 | 0 | i | / | -11 | -15
Cn1c(CSc2ncccn2)nnc1SCC(=O)N1CCCCCC1 | 5 | -3 | 1 | 7 | i | -25 | -9 | -12
O=C(Cn1ccc([N+](=O)[O-])n1)NCc1ccccc1 | / | / | 1 | 2 | i | -16 | -8 | -2
CC(=O)N1CCc2cc(N=NC3=C(O)CCCC3=O)ccc21 | 1.4* | 54* | 10 | 8 | i | 1 | 0 | -7 | eIF4H FP inh retest=92*;PABP polyA inh retest=79*
Cc1ccc(C)c(C(C)NC(=O)CC#N)c1 (stereo not given) | -2 | -3 | 6 | 7 | i | / | 5 | -3
S=C1NC2=C(CCC/C2=C\c2ccccc2)C(c2ccccc2)N1 (stereo not given) | 0 | 11 | 7 | 5 | i | -14 | 15 | -30
CC(C)c1ccc(NC(=S)N2CCN(S(=O)(=O)c3ccccc3)CC2)cc1 | -7 | -5 | -1 | 0 | i | -21 | 9 | -8
CCOc1ccc(CCN2C(=S)N([C@@H](CC(C)C)CN3CCC[C@@H]3CN3C(=S)NC[C@@H]3CC(C)C)C[C@@H]2CC(C)C)cc1 | / | / | 2 | -12 | / | -3 | / | -45
CCCCN(C)CCNC(=O)CN1C(=O)CSc2ccc(S(=O)(=O)N3CCCC3)cc21 | / | / | 0 | 5 | i | -19 | -13 | -6
O=C(NNc1nc(=O)c2cccnc2s1)c1ccccc1O | 9 | 14 | 1 | -3 | i | / | 14 | 8
CCCc1cc2c(=O)c(-c3nc4ccccc4s3)c(COCC(=O)O)oc2cc1O | -20 | 14 | -12 | 5 | / | / | / | -20
Cc1nnc(SCC(=O)Nc2sc3c(c2C#N)CCCC3)[nH]c1=O | 1 | 6 | 3 | 1 | i | -2 | 14 | /
CN(C)Cc1ccccc1Sc1ccc(O)cc1O | -2 | -7 | -4 | -4 | i | -3 | -4 | 20
CCOC(=O)c1cnc2c(OC)cccc2c1Oc1ccccc1 | 2 | -1 | -7 | -3 | i | -8 | -10 | 13
C=CCn1c(C)cc(C(=O)COC(=O)C2CC(=O)N(Cc3ccccc3)C2)c1C (stereo not given) | -4 | -12 | 1 | 3 | / | -2 | 12 | /
CCCCn1c(N)c(N(Cc2ccccc2OC)C(=O)C(C)Oc2ccc(F)cc2)c(=O)[nH]c1=O (stereo not given) | / | / | -1 | 2 | i | / | -3 | 1
Cc1ccc2c(c1)NC(=O)C(CC(=O)NCCCN1CCCC1=O)O2 (stereo not given) | 7 | 5 | 6 | 4 | i | -13 | 0 | -38
COc1ccc(C2/C(=C(/O)c3ccc(C)cc3)C(=O)C(=O)N2CC2CCCO2)cc1OC (stereo not given) | 1 | -9 | 3 | 2 | i | 2 | -15 | -16
COc1ccc(/C=C/C(=O)c2ccc[nH]2)c(OC)c1OC | 0 | 9 | -2 | -1 | i | -14 | -6 | i
CC1CN(C(=O)Nc2ccccc2)c2ccccc2-[n+]2ccsc21 (stereo not given) | 8 | 11 | 3 | 7 | i | / | -6 | -47
O=C(Nc1ncccc1Cl)c1ccc2c(c1)OCCO2 | -8 | 2 | 2 | 2 | i | 7 | -7 | -5
COc1cccc(-c2nc(CS(=O)(=O)CC(=O)NCCCN3CCc4ccccc4C3)c(C)o2)c1 | 1 | 4 | -2 | 0 | / | -6 | -16 | -51
Cc1cc(C)c2c(NC(=S)NC(=O)c3ccccc3)nn(C)c2n1 | -1 | 0 | 5 | 2 | i | / | -21 | -6
COc1ccc(N2C(=O)CC(N3CCCC4CCCCC43)C2=O)cc1 (stereo not given) | -2 | 1 | 7 | 8 | i | -15 | 6 | /
COC(=O)[C@H]1C[C@H](OC(=O)NCc2ccc(OC)c(OC)c2)[C@@]2(O)CN(S(=O)(=O)c3ccc(C)cc3)CC2[C@H]1C(=O)OC (stereo not given in full) | / | / | 2 | 3 | / | -3 | / | -30
Continuation.
SMILES | PABP polyA inh | eIF4H FP inh | MT1-MMP act inh | MT1-MMP act inh RFP | Rce1 inhib | Yeast UUG start | CSC inhib | Env fusion inh | others
c1ccc(C2=Nn3c(nnc3-c3ccncc3)SC2)cc1 | 4 | -9 | -22 | -12 | i | 2 | -8 | 44
COc1ccccc1/C=N/NC(=O)c1csc(C)c1C | 0 | -3 | -2 | 5 | i | -9 | 0 | /
Cc1cc(C)cc(C(=O)NC(CC(N)=O)c2ccc(NC3CCCCC3)c([N+](=O)[O-])c2)c1 (stereo not given) | 22 | -1 | 4 | -4 | i | -23 | -12 | -13
FC(F)C(F)(F)Oc1cccc(Nc2nccn3c(-c4cccc5cccnc45)cnc23)c1 | / | / | 6 | -7 | / | -19 | / | -9
O=C(CCn1nnc2ccccc2c1=O)N[C@@H](Cc1ccccc1)C(=O)O | 17 | 5 | -1 | 1 | i | 14 | 4 | 5
COc1ccc(CN(C)S(=O)(=O)c2nnc(NC(=O)c3cccc(F)c3)s2)cc1 | 4 | -2 | 1 | -3 | i | 4 | 34 | 16
CCOC(=O)/C(C#N)=C/c1c(Oc2cccc(C)c2)nc2c(C)cccn2c1=O | -2 | -8 | -5 | 2 | i | -8 | -8 | /
COCc1nc(-c2ccc(-c3ccccc3)nc2OC)no1 | 3 | -4 | -1 | 3 | i | 6 | / | -295
CCCOc1ccc(C(=O)NCCC(=O)NCCCC(=O)O)cc1 | 11 | -6 | -4 | -2 | i | -15 | -3 | 15

This is a random part of the collection; any-hit rate near 2.9%.
